# Assay outcomes as filed in PubChem BioAssay.
# Mtb growth: Mycobacterium tuberculosis H37Rv growth inhibition, putative kinase inhibitor library, confirmatory dose response (AID 2842); M. tuberculosis H37Rv growth inhibition; higher % means a stronger effect; some inactives read as strong as hits; one-dose inhibition, % at 10 µg/mL; IC90 in µg/mL for titrated hits; hit rate 5.2% among 24,000;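 active means confirmed in a dose series; inconclusive means mostly over 85% at the one dose but not retested; inactive means below 85% or not confirmed; about a fifth of its hits are not listed in these tables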;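 further: bacteria incubated one week before Alamar blue readout; 0% = bacteria only wells and 100% = bacteria with high antibiotic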
# * marks the source's active call; other numbers are inactive results; u = inconclusive. Some of the compounds tested, so the mix of outcomes need not match the whole.
SMILES	Mtb growth
CCOC(=O)c1nn(-c2ccccc2)c(=O)c2c(NC(=O)c3cccc(Br)c3)scc12	-7%
Nn1c(SCC(=O)Nc2ccc(F)cc2)nncc1=O	-5%
O=C(NC1CCCCC1)c1c(O)nc2sccn2c1=O	-10%
O=c1nc(N/N=C/c2cc([N+](=O)[O-])ccc2O)cn[nH]1	-5%
N#Cc1c(NC(=O)c2ccccc2)sc2c1CCC2	0%
CN1CCN(c2nc3c(c(=O)[nH]c(=O)n3C)n2CCCSc2ncccn2)CC1	-7%
COc1ccc(NC(=O)Cn2cc(C(=O)c3ccc(C)c(C)c3)c(=O)c3cc4c(cc32)OCO4)cc1	5%
CCOc1ccc(/C(O)=C2\C(=O)C(=O)N(CCCn3ccnc3)C2c2ccccc2F)cc1Cl (stereo not drawn)	-13%
O=C(N=Nc1c(O)[nH]c2ccccc12)C(c1ccccc1)c1ccccc1	8%
O=C(/C=C1\SC(=O)N(Cc2ccc(F)cc2)C1=O)Nc1nccs1	12%
COc1ccc(NC(=O)CSc2nnc(CCC(=O)O)c(=O)n2N)c(OC)c1	-6%
Cc1c(C(=O)Nc2nnc(C(C)C)s2)cccc1[N+](=O)[O-]	-1%

# Next part (four carried over from the part before).
SMILES	Mtb growth
O=C(N=Nc1c(O)[nH]c2ccccc12)C(c1ccccc1)c1ccccc1	8%
O=C(/C=C1\SC(=O)N(Cc2ccc(F)cc2)C1=O)Nc1nccs1	12%
COc1ccc(NC(=O)CSc2nnc(CCC(=O)O)c(=O)n2N)c(OC)c1	-6%
Cc1c(C(=O)Nc2nnc(C(C)C)s2)cccc1[N+](=O)[O-]	-1%
CCOC(=O)c1nn(-c2ccc(F)cc2)c(=O)c2c(NC(=O)COc3ccc4ccccc4c3)scc12	-9%
Cn1c(=O)c2c(SCC(=O)Nc3nccs3)ccnc2n(C)c1=O	-5%
CCn1cc(C(=O)NCc2ccc3c(c2)OCO3)c2nn(-c3ccccc3)c(=O)c-2c1	-4%
CCc1cc(C(=O)Cn2cnc3ccccc32)c(O)cc1O	-3%
COCCn1c(=NC(=O)c2cc(=O)c3ccccc3o2)sc2cc(OC)ccc21	9%
Cc1nnc(N2C(=O)C(=O)/C(=C(\O)c3ccccc3)C2c2ccc(Cl)c(Cl)c2)s1 (stereo not drawn)	9%
CCOC(=O)c1nn(-c2ccccc2)c(=O)c2c(NC(=O)c3cc4ccccc4oc3=O)scc12	2%
CC(=O)c1ccc(NC(=O)c2cnc3sccn3c2=O)cc1	-4%
O=C(Cc1cc(=O)[nH]c(=O)[nH]1)NCCCc1ccccc1	0%
CCOc1ccc2c(c1)c(=O)c(S(=O)(=O)c1ccc(F)cc1)cn2Cc1ccc(Cl)cc1	-4%
Cc1ccc(-c2nnc3ccc(SCC(=O)N4CCCCC4)nn23)cc1	-2%
COc1ccc(-n2c(=O)[nH]c3c(C(N)=O)nc(-c4cc(Br)ccc4OC)nc32)cc1	9%

# Three compounds drawn at random from the list so far:
SMILES	Mtb growth
Cn1c(=O)c2c(SCC(=O)Nc3nccs3)ccnc2n(C)c1=O	-5%
CCn1cc(C(=O)NCc2ccc3c(c2)OCO3)c2nn(-c3ccccc3)c(=O)c-2c1	-4%
COc1ccc(-n2c(=O)[nH]c3c(C(N)=O)nc(-c4cc(Br)ccc4OC)nc32)cc1	9%

# The list goes on.
SMILES	Mtb growth
CCOC(=O)c1c(NC(=O)Nc2ccccc2)sc2c1CCCC2	11%
O=C(Cn1cc(S(=O)(=O)Cc2ccccc2)c2ccccc21)Nc1nccs1	-5%
CCOc1ccc(-c2nnc3c4cc(F)ccc4n(Cc4ccc(F)cc4)cc2-3)cc1	56%
CC(O)Cn1c(NCc2cccnc2)nc2c1c(=O)[nH]c(=O)n2C (stereo not drawn)	-4%
CC(=O)Nc1ccc(Nc2nc3c(S(=O)(=O)c4cc(C)ccc4C)nnn3c3ccsc23)cc1	9%
CSc1nc(N)c(NC(=O)c2ccccc2)c(=O)[nH]1	0%
Cc1cccc(N2CCCn3c2nc2c3c(=O)[nH]c(=O)n2C)c1	-14%
N#Cc1ccc(-c2csc(NC(=O)COc3ccc(Cl)cc3)n2)cc1	29%
COc1cc2c(=O)c(S(=O)(=O)c3ccc(F)cc3)cn(Cc3ccc(F)cc3)c2cc1OC	3%
CC1CC(C)CN(c2ncnc3c2cnn3C)C1 (stereo not drawn)	3%
COc1ccc2nc(NC(=O)c3ccc(Cl)cc3)sc2c1	15%
O=C(CSc1ccc2nnc(-c3ccc(F)cc3)n2n1)NCc1ccco1	3%
O=C(Nc1nc(-c2cccs2)cs1)c1ccc(N2C(=O)CCC2=O)cc1	10%
COc1ccc(C(=O)Nc2nc(-c3ccc4ccccc4c3)cs2)cc1	1%
CN1C(=O)NC(c2cccc([N+](=O)[O-])c2)C2=C1CCCC2=O (stereo not drawn)	-12%
Cc1ccccc1NS(=O)(=O)c1ccc2[nH]c(=O)cc(C)c2c1	2%
COc1ccccc1C(=O)Nc1c(C(=O)Nc2ccc([N+](=O)[O-])cc2)oc2ccccc12	-6%
COc1ccc(NC(=O)NC2CC(=O)N(c3ccc4c(c3)OCCO4)C2)cc1 (stereo not drawn)	6%
Cc1ccc(-c2nnc3ccc(SCC(=O)Nc4ccc(Cl)cc4)nn23)cc1	3%
COc1ccc(NC(=O)c2oc3ccccc3c2NC(=O)Cc2ccc(Cl)cc2)cc1OC	2%
Cc1cc(C)nc(SCCn2c(N3CCN(c4cccc(Cl)c4)CC3)nc3c2c(=O)[nH]c(=O)n3C)n1	-3%
COc1ccc(C(=O)NCC(=O)NNc2ncnc(N)c2[N+](=O)[O-])c(OC)c1	6%
COc1cccc(-c2nc(C(N)=O)c3[nH]c(=O)n(-c4ccc(C(C)(C)C)cc4)c3n2)c1O	-14%
CCc1ccc(NC(=O)c2oc3ccccc3c2NC(=O)C(C)C)cc1	6%

# Entries from the list above containing a cyano group (2):
SMILES	Mtb growth
N#Cc1c(NC(=O)c2ccccc2)sc2c1CCC2	0%
N#Cc1ccc(-c2csc(NC(=O)COc3ccc(Cl)cc3)n2)cc1	29%

# New compounds follow
SMILES	Mtb growth
COc1ccc(CC(=O)Nc2c(C(=O)Nc3ccc4c(c3)OCO4)oc3ccccc23)cc1	26%
COc1ccccc1C(=O)NCCc1cc2ccc(C)c(C)c2[nH]c1=O	-3%
CC1CN(c2ncnc3c2c(-c2ccccc2)cn3-c2ccccc2)CC(C)O1 (stereo not drawn)	29µg/mL*
O=[N+]([O-])c1ccc2nc(SCc3cn4cccnc4n3)[nH]c2c1	-11%
CC(C)c1ccc(NC(=O)CSc2nccn(-c3ccc(F)cc3)c2=O)cc1	7%
O=C(Nc1c(C(=O)Nc2ccc(F)cc2)oc2ccccc12)c1ccccc1C(F)(F)F	-8%
Cc1ccc(NC(=O)c2oc3ccccc3c2NC(=O)CC(C)(C)C)cc1C	-1%
Cc1csc2nc(O)c(C(=O)NCc3ccncc3)c(=O)n12	-21%
CCOc1ccc(/C(O)=C2\C(=O)C(=O)N(CCCn3ccnc3)C2c2ccc(F)cc2)cc1Cl (stereo not drawn)	-18%
CC(O)CNc1ncnc2c1cnn2-c1ccc(Cl)c(Cl)c1 (stereo not drawn)	13µg/mL*
NC1=NC(=O)C(Cc2ccccc2Cl)S1 (stereo not drawn)	6%
C=C(C)Cn1c(N2CCCC2)nc2c1c(=O)[nH]c(=O)n2C	1%
CC1=C(C(=O)OC(C)(C)C)C(c2ccc(Cl)cc2)C(C#N)=C(N)O1 (stereo not drawn)	-7%
Cc1ccc(NC(=O)CN2N=NC3C(=O)N(c4ccc(F)c(Cl)c4)C(=O)C32)cc1 (stereo not drawn)	1%
COc1cc(OC)cc(-c2nnc(NC(=O)c3ccno3)o2)c1	5%
Clc1cccc(CSc2nnc3ccc(-c4cccnc4)nn23)c1	-2%
Nc1c(C(=O)Nc2ccc(Br)cc2)sc2nc3c(cc12)C(=O)CCC3	-7%
COc1ccc(/C=C2\SC(N(C)c3ccc(O)cc3)=NC2=O)cc1OC	7%
O=C(CSc1nc2sc3c(c2c(=O)[nH]1)CCCC3)Nc1nccs1	-1%
O=[N+]([O-])c1ccc(OCCS(=O)(=O)c2ccccc2)c(OCCS(=O)(=O)c2ccccc2)c1	-15%
Cc1ccc(-n2c(SCC(=O)Nc3cccc(F)c3)nc3c(c2=O)SCC3)cc1	12%
COc1cccc2c(=O)n(CC(=O)NCc3ccc(F)cc3)ccc12	-1%
Cc1nc2sc(C(c3cccc(Cl)c3)N3CCC(C(N)=O)CC3)c(O)n2n1 (stereo not drawn)	3%
Cc1ccc2nc(NC(=O)c3ccc4ncsc4c3)sc2c1	11%

# For reference, part of the list above.
SMILES	Mtb growth
CC1=C(C(=O)OC(C)(C)C)C(c2ccc(Cl)cc2)C(C#N)=C(N)O1 (stereo not drawn)	-7%
Cc1ccc(NC(=O)CN2N=NC3C(=O)N(c4ccc(F)c(Cl)c4)C(=O)C32)cc1 (stereo not drawn)	1%

# The results go on:
SMILES	Mtb growth
CCOc1ccc(C(=O)c2cn(Cc3ccc(C)cc3)c3cc4c(cc3c2=O)OCCO4)cc1	0%
COc1cccc(/C=C(\C#N)c2nc3ccccc3s2)c1OC	0%
COc1ccc(C(=O)Nc2nnc(-c3ccc(Cl)cc3Cl)s2)cc1OC	3%
CC(C)N1C(=O)c2ccc(C(=O)OCc3ccccc3Cl)cc2C1=O	4%
O=C(Cn1c(=O)c2sccc2n(Cc2ccccc2F)c1=O)NCc1ccccc1Cl	0%
Clc1cc(Cl)c2nc(N3CCN(c4nc5ccccc5s4)CC3)sc2c1	-5%
COc1cc(/C=N/n2cnnc2)ccc1OC(=O)c1ccncc1	7%
CC1(C)CC(=O)c2sc(NC(=O)CN3C(=O)CCC3=O)nc2C1	-5%
Cc1cc(NS(=O)(=O)c2ccc(NC(=O)c3cc4c(ccc5ccccc54)oc3=O)cc2)no1	-8%
CC(=O)Nc1ccc(NC(=O)CSc2ncnc3c2nnn3Cc2ccc(Cl)cc2)cc1	-9%
Cc1cc(C)nc(/N=C/c2c(O)c3ccccc3oc2=O)n1	-2%
COC(=O)c1ccc(/C=C2\SC(=Nc3ccc(F)cc3)NC2=O)cc1	-1%

# (listing goes on)
SMILES,Mtb growth
COc1ccc(C)c2sc(N(CCCn3ccnc3)C(=O)Cc3ccc(F)cc3)nc12,57%
CC1C(=O)N2CCCc3cc(S(=O)(=O)N4CCCc5ccccc54)cc1c32 (stereo not drawn),2%
Cc1cc(NC(=O)CSc2cn(CCNC(=O)c3ccccc3)c3ccccc23)no1,1%
CC1CCc2sc(NC(=O)c3cccs3)c(C(N)=O)c2C1 (stereo not drawn),1%
O=C(Nc1ccc(-c2nc3ccccc3s2)cc1)c1ccccc1F,11%
CCOc1cc(C(=O)Nc2nnc(CC)s2)cc(OCC)c1OCC,-1%
COc1ccc(C(=O)NCCc2cc3c(C)ccc(C)c3[nH]c2=O)cc1OC,-3%
CC1=C(C(=O)Nc2ccccc2F)C(c2cccs2)NC(=O)N1 (stereo not drawn),1%
c1c2c(cc3sc(N4CCN(c5nc6cc7c(cc6s5)OCCO7)CC4)nc13)OCCO2,-3%
Cc1ccccc1-c1nnc(NC(=O)Cc2cccc3ccccc23)s1,11%
O=C1CN(C(=O)OCc2ccccc2)C(c2ccccc2)c2cc(Br)ccc2N1 (stereo not drawn),29%
COc1ccc2cc(CCNC(=O)c3ccc(-c4ccccc4)cc3)c(=O)[nH]c2c1,-6%
COc1ccc(Cl)cc1C(=O)Nc1c(C(=O)Nc2ccc([N+](=O)[O-])cc2)oc2ccccc12,5%
O=C(Cn1cnc2c(cnn2-c2ccccc2)c1=O)NC1CCCC1,-4%
COc1ccc(CN2CC3=C(C2=O)C(c2ccc(Cl)cc2)NC(=O)N3)cc1 (stereo not drawn),-15%
CC(O)CNc1nc2c(c(=O)[nH]c(=O)n2C)n1CC(O)COc1ccc(Cl)cc1 (stereo not drawn),0%
O=C(CCCCn1c(=O)[nH]c2ccsc2c1=O)NCC1CCCO1 (stereo not drawn),-10%
O=C(Nc1nnc(-c2ccc(Cl)cc2)s1)c1ccccc1C(F)(F)F,1%
CCOC(=O)c1nn(-c2ccc(F)cc2)c(=O)c2c(NC(=O)c3ccccc3C(F)(F)F)scc12,2%
CC1Cc2nc(SCC(=O)Nc3ccc(F)cc3F)n(Cc3ccccc3)c(=O)c2S1 (stereo not drawn),2%
Cc1cc(C)nc(SCCS(=O)(=O)c2nc3ccccc3s2)n1,-10%
CCn1c(=NC(=O)c2ccccc2S(=O)(=O)CC)sc2cc3c(cc21)OCCO3,7%
COc1ccc(-c2ccc(=O)n(CCNC(=O)c3cc4ccccc4oc3=O)n2)cc1,-6%
Cc1ccc(C)c(-c2nnc(NC(=O)c3cccc(Cl)c3)o2)c1,16µg/mL*
CCn1c(SCC(=O)Nc2cccc(C)c2)nc2c(c1=O)SC(C)C2 (stereo not drawn),2%
COc1ccc2cc(C(N)=O)c(=Nc3cccc(C)c3)oc2c1,3%
CCCCOc1cccc(C(=O)Nc2nnc(-c3ccc4c(c3)OCCO4)o2)c1,97%
Cc1oc2c(c1C(=O)NCCCn1ccnc1)C(=O)c1ccccc1C2=O,u
CN(C)S(=O)(=O)c1ccc(C(=O)Nc2c(C(=O)Nc3ccc(Cl)cc3)oc3ccccc23)cc1,-1%
Cc1ccccc1-c1nnc(NC(=O)CSc2ccccc2)s1,-7%
COc1ccccc1NC(=O)CSc1nnc(Cc2ccc(C)cc2)c(=O)[nH]1,-11%
Oc1[nH]c(=S)sc1C=C1N=c2ccccc2=N1,-10%
CC(=O)Nc1ccc2nc(NC(=O)c3cccc(NS(=O)(=O)c4ccccc4)c3)sc2c1,4%
COC(=O)c1c(NC(=O)CC2CCS(=O)(=O)C2)sc2c1CCC2 (stereo not drawn),4%
CCCN(CCC)c1ncnc(N)c1[N+](=O)[O-],-8%
Cc1ccccc1C(=O)Nc1nnc(-c2ccncc2)o1,14µg/mL*
CCOC(=O)c1sc2nc(NC(=O)Cc3ccccc3)sc2c1C,13%
